tolC growth inh – growth inhibitors of E. coli BW25113 tolC mutant; OD615; 65,000 tested, 2.2% active; growth inhibition, % at 10 µM (by protocol);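 active = growth inhibition at or above a cutoff equal to the mean over every tested compound plus 3 SD, cut at about 60% in these data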;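 note: growth measured after 20 h incubation at 37 °C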
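Test system: tolC-deleted E. coli BW25113 | Medium: LB with kanamycin 50 µg/mL | Compound dosing: Single concentration, 10 µM final per compound | Schedule: 37 °C, 20 h exposure | Measured by: OD at 615 nm | Evaluation: Percent growth inhibition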
5HT1a ag – 5-HT1a (human) receptor agonism. 65,000 tested, 0.56% active. CHO 5-HT1a Ga15 NFAT-bla reporter, FRET ratio; 0% basal, 100% maximal reference agonist. AID 567. activation, % at 10 µM;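 active = activation above the screen-wide mean activation plus 3 SD, cut at about 19% in these data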;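 note: 0% = DMSO wells and 100% = 5-CT at EC100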
Target sequence (P08908 whole entry, looked up): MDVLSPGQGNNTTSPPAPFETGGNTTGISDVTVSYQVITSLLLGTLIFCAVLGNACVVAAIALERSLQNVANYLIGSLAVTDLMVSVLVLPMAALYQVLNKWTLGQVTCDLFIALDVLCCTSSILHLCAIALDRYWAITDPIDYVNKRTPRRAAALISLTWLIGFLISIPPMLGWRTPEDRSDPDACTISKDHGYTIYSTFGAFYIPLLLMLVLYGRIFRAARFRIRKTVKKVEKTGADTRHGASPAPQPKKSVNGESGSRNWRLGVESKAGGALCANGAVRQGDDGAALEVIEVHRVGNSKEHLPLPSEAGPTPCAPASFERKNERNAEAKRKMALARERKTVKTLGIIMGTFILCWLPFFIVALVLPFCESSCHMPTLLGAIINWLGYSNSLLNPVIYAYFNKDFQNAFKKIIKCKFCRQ
MMP13 inh – inhibitors of human MMP13 | P45452 | MMP-13 fTHP FRET cleavage, Mca fluorescence | inhibition, % at 4 µM | 65,000 tested, 0.07% active | AID 570;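 active = inhibition above the mean of compound-free control plate wells plus 3 SD, cut at about 14% in these data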;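 note: 0% = DMSO wells and 100% = wells with reference MMP-13 inhibitor after basal subtraction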
HTR1E agonist – activates the human 5-HT1E serotonin receptor. CHO 5-HT1E Ga15 NFAT-bla reporter, FRET; 0% DMSO wells, 100% control agonist wells. 65,000 tested, 0.69% active. P28566. activation, % at 6 µM;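 active = activation above a set limit, the screen-wide mean activation plus 3 SD, cut at about 8.5% in these data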;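 note: 100% = positive control agonist at 1 µM giving full maximal response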
Target sequence (P28566 whole entry, looked up): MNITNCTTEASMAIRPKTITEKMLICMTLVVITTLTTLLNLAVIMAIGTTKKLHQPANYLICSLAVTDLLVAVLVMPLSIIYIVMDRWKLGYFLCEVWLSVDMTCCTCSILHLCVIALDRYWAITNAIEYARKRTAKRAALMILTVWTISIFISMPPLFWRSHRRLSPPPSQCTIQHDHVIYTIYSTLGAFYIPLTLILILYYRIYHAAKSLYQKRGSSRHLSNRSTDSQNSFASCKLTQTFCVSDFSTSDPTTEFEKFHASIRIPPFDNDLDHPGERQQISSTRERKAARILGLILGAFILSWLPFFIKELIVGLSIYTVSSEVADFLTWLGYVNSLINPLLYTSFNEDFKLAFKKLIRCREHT
5-HT1A blocker – antagonists of human 5-HT1a serotonin receptor | P08908 | CHO 5-HT1a Ga15 NFAT-bla reporter, antagonist mode | inhibition, % at 10 µM | 62,000 tested, 0.68% active;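 active = inhibition above the mean of all tested compounds plus 3 SD, cut at about 43% in these data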;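 note: receptor stimulated by 5-CT agonist at 100 nM near EC80; beta-lactamase reporter measured by ratiometric fluorescence of a cleavable substrate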
RORA act – RORA (human) activation; CHO-K1 Gal4-RORA LBD luciferase reporter, luminescence; percent increase over mock-subtracted basal signal; activation, % at 10 µM; 65,000 tested, 1.5% active; AID 560;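 active = activation above the mean of all tested compounds plus 3 SD, cut at about 49% in these data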;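 note: 0% = DMSO-treated RORA cells and 100% = added signal equal to DMSO minus mock-transfected cells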
SF-1 act – activators of human nuclear receptor SF-1; 65,000 tested, 1.9% active; AID 522; activation, % at 10 µM; Q13285; CHO-K1 Gal4-SF-1 LBD luciferase reporter; % increase over DMSO SF-1-specific signal;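 active = activation above the mean activation of all tested compounds plus 3 SD, cut at about 50% in these data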
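Test system: transient Gal4-SF-1 LBD reporter, CHO-K1; Amount: 4,000 CHO-K1 cells per well; Doses: 10 µM only; Timing: compound exposure 20 h at 37 °C; Signal: luciferase light emission; Read-out basis: percent activation relative to DMSO median and mock-transfected background; Control set: DMSO negative control and −SF1 background wells; Replicates: one test per compound.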
5HT1E antag – blocks the human 5-HT1E serotonin receptor | CHO 5-HT1E Ga15 NFAT-bla reporter, FRET, antagonist | inhibition, % at 6 µM | 65,000 tested, 0.99% active | AID 571;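 active = inhibition above a set limit, the mean inhibition across every tested compound plus 3 SD, cut at about 29% in these data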;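 note: signal is the 460 over 535 nm emission ratio of beta-lactamase substrate; 0% = agonist plus DMSO wells and 100% = wells without agonist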
Starred values were filed as active, the others as inactive; nt = no result given; [ ] = another dose, or the depositor's remark. Some of the compounds tested; count on the stated rates, not on these rows.

The line under a structure holds: tolC growth inh, SF-1 act, RORA act, HTR1E agonist, 5HT1a ag, MMP13 inh, 5HT1E antag, 5-HT1A blocker
1. Cc1cccc(-c2nnc(-c3ccc(N)cc3)o2)c1
 : 10, 38, 24, 0.1, 0.4, -310[fluorescence artefact?], -12, 7
2. CCc1ccc(N2CC(C(=O)NCc3ccc4c(c3)OCO4)CC2=O)cc1 (stereo not drawn)
 : -11, -20, -6, 1.4, -3.3, 0, 2, -8
3. CCCC(c1nnnn1CCc1ccccc1)N1CCN(C(=O)c2ccco2)CC1 (stereo not drawn)
 : 12, -4, -19, -0.5, -4.5, 4, 1, 8
4. COc1ccc(-c2nc3cc(NC(=O)c4ccc5c(c4)OCO5)ccc3o2)cc1
 : -6, -2, 12, -0.5, -2.8, -2, -3, 7
5. CC1(C)CC(=O)C(CC(=O)NC(=O)NCc2ccccc2)=C(O)C1
 : 2, 10, -4, -0.6, -5.1, -8, -8, 2
6. O=C(O)C(c1ccccc1)C1(O)CCCC1 (stereo not drawn)
 : -17, -6, -1, -0.5, -2.3, 6, -12, -13
7. O=C(Nc1nncs1)C1COc2ccccc2O1 (stereo not drawn)
 : -3, 9, -12, -0.5, -1.3, 1, 4, 0
8. COc1ccccc1N1CCN(C2CCN(C(=O)c3cc(OC)c(OC)c(OC)c3)CC2)CC1
 : 3, 4, 9, -0.4, -1.4, 2, -6, nt
9. COc1ccc(C(=O)NCc2cn3ccccc3n2)cc1
 : -8, 10, -10, 0.4, -2.8, -9, 5, 9
10. COc1cccc(NC(=O)C2CCCN(S(=O)(=O)c3cccc4cccnc34)C2)c1 (stereo not drawn)
 : 24, -4, 5, 0.1, -1.5, 1, -7, -16
11. Oc1c(C(c2ccccc2)N2CCc3ccccc3C2)sc2ncnn12 (stereo not drawn)
 : -2, 12, 18, 0.5, 10, 5, -4, 4
12. Cc1ccc(-c2nc3ccccc3c(=O)n2CCN2CCOCC2)cc1
 : -19, -5, 26, -0.4, 0.2, -5, -8, 0
13. O=S(=O)(/C=C/c1ccccc1)Nc1ccc2c(c1)OCO2
 : 7, -6, -14, 0.2, 0.6, 0, 11, nt
14. CCN(CC)S(=O)(=O)c1cccc(-c2nnc(SC(C)C(=O)NCCC3=CCCCC3)o2)c1 (stereo not drawn)
 : 42, -2, -17, 0.8, 5.8, 3, -10, -4
15. CCC(C)(C)n1nnnc1CN1CCN(c2nc3cc(OC)ccc3cc2C#N)CC1
 : 1, -10, -3, 0.8, -0.3, -27, 2, 5
16. O=C(Cc1ccc(Cl)cc1)Nc1cccc(-c2nnc(-c3ccco3)o2)c1
 : 2, 13, 16, 1.5, 0.4, -30, -33, nt
17. CCOC(=O)N1CCN(C(=O)c2ccc3c(=O)n(Cc4ccccc4)c(=S)[nH]c3c2)CC1
 : 19, 14, -4, -0.5, 1.5, 3, 7, 8
18. CC(C(N)=O)N1C(=O)C2C3C=CC(C3)C2C1=O (stereo not drawn)
 : -20, -4, -8, 0.0, -0.9, -2, -2, -9
19. O=C(c1ccccc1CCc1ccccc1)N1CCOCC1
 : 1, 0, -12, -0.2, -2.7, 1, 2, -3
20. O=S(=O)(Nc1ccc(S(=O)(=O)N2CCOCC2)cc1)c1ccccc1
 : 1, -7, -15, 0.4, -2.5, 0, -7, 2

The results go on:
The line under a structure holds: tolC growth inh, SF-1 act, RORA act, HTR1E agonist, 5HT1a ag, MMP13 inh, 5HT1E antag, 5-HT1A blocker
21. Cc1nnc2sc(-c3csc4c3CCCC4)nn12
 : 32, -4, -12, -0.3, -0.8, 5, 3, -6
22. Cc1cc(NC(=O)COC(=O)C2COc3ccccc3O2)no1 (stereo not drawn)
 : -5, 12, -10, 0.1, -2.0, -2, 7, -1
23. COc1cc(NC2c3ncccc3C(=O)N2Cc2ccco2)cc(OC)c1 (stereo not drawn)
 : -1, 5, -6, -0.3, -3.1, 2, -5, -2
24. Nc1nc(SCc2ccc(Cl)cc2)ns1
 : 23, 13, 30, -0.6, -2.3, 4, 7, 2
25. CCOc1ccccc1NC(=O)c1ccccc1NS(C)(=O)=O
 : 13, 4, 0, 0.8, -1.6, -4, -4, 5
26. COC(=O)c1onc(C(=O)c2ccccc2)c1C(=O)OC
 : 3, 6, -22, -0.3, -1.9, -4, 2, -4
27. O=C(c1ccccc1)N1CCN(CC#Cc2ccccc2)CC1
 : 5, 23, 25, -1.0, -3.0, 4, 2, 6
28. Cc1ccc(C2N(c3cccc(Cl)c3)C(=O)C3CCCN32)o1 (stereo not drawn)
 : -16, -4, -10, 0.2, -4.1, -2, 1, 11
29. CCn1c(C)c(C(C)=O)c(NCc2ccccc2)nc1=S
 : -10, 3, -16, -0.1, 1.5, 5, 5, 4
30. Cc1ccc(-c2noc(CSc3nnnn3C3CCCCC3)n2)cc1
 : 73*, -30, 10, 0.5, 1.5, 8, 1, 1
31. O=C(Nc1cccc2c1CCCC2)C1CCN(c2nnnn2-c2ccccc2)CC1
 : -5, 20, -6, -0.5, -0.1, -7, -11, 3
32. COc1ccc(CNC(=O)c2cc(-c3ccccc3OC)on2)cc1
 : 69*, 7, 2, 0.0, -4.2, -4, 2, 0
33. O=C(Nc1ccccc1-c1ccccc1)c1cnccn1
 : 10, 18, 0, -0.7, -1.6, 4, 18, 8
34. CCCOc1ccc(S(=O)(=O)NCCCN2CCOCC2)c2ccccc12
 : 16, 12, 0, 1.2, -0.6, 5, -2, 5
35. CCOC(=O)c1sc(=S)n2c1[nH]c(=O)c1ccc(C(=O)OC)cc12
 : 17, -7, -8, -0.8, -1.3, -1, 5, 0
36. CCCCN1C(=O)CC(Nc2ccc(CC)cc2)C1=O (stereo not drawn)
 : 11, 9, 4, 0.1, -5.5, -3, -3, -2
37. O=C(Nc1ccc2c(c1)OCO2)c1nn(-c2ccccc2)c(=O)c2ccccc12
 : 24, 9, 3, 0.7, 0.9, 4, 1, 0
38. COc1cccc(C2CC(C(F)(F)F)n3ncc(C(=O)NCc4ccco4)c3N2)c1 (stereo not drawn)
 : 19, -3, -14, -0.3, -0.6, -1, -5, -6
39. COc1cccc(C(=O)OCn2nnc3ccccc3c2=O)c1
 : 6, -3, -20, -0.2, -0.5, 0, -8, 1
40. CCOC(=O)C(NC(=O)CC)(Nc1sc2c(c1C(=O)OC)CCN(C)C2)C(F)(F)F (stereo not drawn)
 : -8, -7, -18, 0.5, -1.5, -13, -4, -4

Next results follow:
The line under a structure holds: tolC growth inh, SF-1 act, RORA act, HTR1E agonist, 5HT1a ag, MMP13 inh, 5HT1E antag, 5-HT1A blocker
41. O=C(NCc1ccco1)c1ccc(S(=O)(=O)c2cccc(S(=O)(=O)N3CCOCC3)c2)cc1
 : 9, -10, -25, -1.4, -3.9, 7, 15, -7
42. CCOC(=O)c1ccc(NS(=O)(=O)CC)cc1
 : 5, 2, -7, 0.5, -0.8, 4, -3, -8
43. CCS(=O)(=O)N1CCCC(C(=O)NCCN(C)Cc2ccccc2)C1 (stereo not drawn)
 : -11, -9, -11, 0.1, 1.3, -2, 0, 6
44. CCOc1ccc(N(CC(=O)NCc2ccc(F)cc2)S(=O)(=O)c2c(C)noc2C)cc1
 : 5, 5, 10, 0.8, -0.3, 4, 1, -4
45. CCOC(=O)N1CCN(Cc2cn3ccccc3n2)CC1
 : -19, 4, 1, -1.8, -0.2, 2, 1, 19
46. NCCc1nnc(SCc2ccc(F)cc2)o1
 : -19, 12, 8, -1.9, -1.8, 1, -2, -7
47. COc1cc2c(cc1O)C(SC)=NC(C)(C)C2
 : 5, -8, 15, 0.1, 0.7, -2, 0, 16
48. Cc1ccc(-c2cc(C(=O)NCc3cccs3)no2)cc1
 : 2, 60*, 59*, 0.0, 1.3, -2, -1, 1
49. COc1ccccc1Oc1nc2c(c(=O)n(Cc3ccccc3F)c(=O)n2C)n1C
 : 12, -7, 14, 0.5, -0.7, 0, 0, 8
50. COc1cccc(C(CC(=O)NCC2CCCO2)NS(=O)(=O)c2ccc(C)cc2)c1OC (stereo not drawn)
 : -5, -6, -5, -0.1, -2.4, 2, -9, -12
51. CCCCC(=O)Nc1ccc2c(c1)C(=O)NC2=O
 : -4, 4, 2, 0.5, -2.8, -108[fluorescence artefact?], 44*, -6
52. COc1ccc(C(=O)N2CCCN(C)CC2)cc1S(=O)(=O)N1CCCc2ccccc21
 : -7, 10, 13, -0.8, -0.9, -4, 2, 2
53. O=C(CNCC1CCCO1)Nc1ccccc1N1CCOCC1 (stereo not drawn)
 : -17, -15, -16, 0.1, -0.6, 1, -5, -2
54. CC(NC(=O)C1CCC1)c1ccc(Cl)cc1 (stereo not drawn)
 : -3, 9, -20, -0.3, -2.8, -1, -8, 14
55. CN1CC2(Cc3c1ccc1ccccc31)C(=O)OC(C)(C)OC2=O
 : -29, 4, -4, 1.7, -0.1, -282[fluorescence artefact?], -3, -2
56. CCc1nnc(NC(=O)c2ccc(S(=O)(=O)N3CCOCC3)cc2)s1
 : -18, -5, -1, 0.7, -0.5, 3, -19, -6
57. CCOc1ccc(OCC)c(NC(=O)CN2CCN(c3cc(C)ccc3C)CC2)c1
 : 26, -19, -5, -0.6, 2.1, 0, 12, 29
58. Nc1nonc1C(=O)NCCNC(=O)c1ccccc1F
 : -8, -2, -16, -0.4, -1.4, -4, -10, 4
59. CCOC(=O)Cn1c(=O)oc2cc(S(=O)(=O)Nc3cc(Cl)ccc3OC)ccc21
 : 13, 1, 0, 0.0, 1.4, 3, 13, 2
60. CCOC(=O)CN(C)Cc1c[nH]c2ccccc12
 : 3, 5, 8, -0.7, -2.0, 4, 6, 17

Following part
The line under a structure holds: tolC growth inh, SF-1 act, RORA act, HTR1E agonist, 5HT1a ag, MMP13 inh, 5HT1E antag, 5-HT1A blocker
61. Cc1ccc2c(c1)nnn2C1CCN(S(=O)(=O)c2ccc(C(=O)N(C)C3CCCCC3)cc2)CC1
 : 30, -15, 2, -0.1, 0.5, 2, 4, 6
62. CCCOC1(NC(=O)c2ccccc2)C(C)=CC(=O)C=C1C
 : -20, -8, -20, -0.2, -2.7, -2, -14, 4
63. Cc1nc(CSc2nnc3scc(-c4ccccc4)n23)cs1
 : -2, -3, -2, 0.2, -3.6, -5, 9, -7
64. CS(=O)(=O)N(CC(=O)Nc1cccnc1)c1ccc2c(c1)OCCO2
 : -1, 1, -10, 0.3, -1.0, 2, -3, -8
65. CCOC(=O)N1CCN(C2CC(=O)N(c3ccc(C)cc3)C2=O)CC1 (stereo not drawn)
 : -5, -15, -3, -0.6, 0.5, 2, 2, -11
66. Cc1cc(N2CCN(C3CCCCC3)CC2)n2nc(C)nc2n1
 : -6, 4, 33, -0.8, 4.3, 4, 7, 8
67. O=C(Nc1ccc2c(c1)OCO2)C1CCN(S(=O)(=O)c2cccs2)CC1
 : -3, 11, 18, 0.7, -1.3, 9, 8, 14

Screens from PubChem.
